Assay outcomes from PubChem BioAssay.
TRPML1 inh: blocks the human TRPML1 channel; Q9GZU1; TRPML1-inducible cells, Ca2+ dye fluorescence, FDSS; active compounds read low; inhibition of EC80 agonist-evoked calcium signal; activity change, negative = inhibition, % (test concentration not listed); actives 0.02% (n = 390,000); in the data active means activity change below about -50%; inconclusive means about -30% to -50%; inactive means above about -30%;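 also: stimulus is agonist 54-4 at its EC80 concentration; % is scaled to controls: 0 for no effect and ±100 for the full control effect; compound concentration not given in the record; the text of the record puts the active cut at -80%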
Target sequence (Q9GZU1 whole entry, looked up): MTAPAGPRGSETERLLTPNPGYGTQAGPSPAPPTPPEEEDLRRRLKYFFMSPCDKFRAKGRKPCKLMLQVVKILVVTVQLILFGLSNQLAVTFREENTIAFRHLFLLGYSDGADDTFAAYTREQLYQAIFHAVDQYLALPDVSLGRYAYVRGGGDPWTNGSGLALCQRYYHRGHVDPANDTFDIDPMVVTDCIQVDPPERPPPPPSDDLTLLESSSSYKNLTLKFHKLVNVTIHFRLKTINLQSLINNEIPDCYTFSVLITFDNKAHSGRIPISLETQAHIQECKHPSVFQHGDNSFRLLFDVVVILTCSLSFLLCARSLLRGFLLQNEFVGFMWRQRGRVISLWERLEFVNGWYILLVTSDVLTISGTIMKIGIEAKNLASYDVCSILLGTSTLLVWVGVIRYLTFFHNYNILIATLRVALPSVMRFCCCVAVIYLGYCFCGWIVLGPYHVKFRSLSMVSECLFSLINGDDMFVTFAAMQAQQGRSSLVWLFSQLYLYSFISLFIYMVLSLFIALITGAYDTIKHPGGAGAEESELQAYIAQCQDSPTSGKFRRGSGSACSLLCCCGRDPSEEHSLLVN
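Tet-induced TRPML1-DL cells loaded with Ca8 no-wash calcium dye were read kinetically on FDSS. Compound addition was followed by EC80 agonist 54-4 (4 uM final); inhibition was read over 110 s.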
ClpP mod: qHTS Assay for Activators of ClpP; purified B. subtilis ClpP, FRET peptide cleavage, 20 min; Potency, µM (series often up to 57.5 µM), without a hit: at the top dose activity change, negative = active; actives 1.9% (n = 340,000); active = well fitted falling curve with a large enough effect; inconclusive = small, poorly fitted or top-dose-only effect; inactive = no such curve, though single readings can be large or run the other way; also: potency is read from the fitted curve at half-maximal effect; the source files actives as falling curves though it sought activators and does not explain the sign; nearly all actives have a fitted effect of over 65% in size; many hits overshoot -100%
Target sequence (P80244 whole entry, looked up): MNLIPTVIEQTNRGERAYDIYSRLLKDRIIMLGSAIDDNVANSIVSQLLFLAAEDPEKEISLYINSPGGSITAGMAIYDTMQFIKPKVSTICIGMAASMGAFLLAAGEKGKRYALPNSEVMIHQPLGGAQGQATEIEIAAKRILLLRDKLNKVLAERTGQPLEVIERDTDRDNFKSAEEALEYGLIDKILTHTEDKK
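Buffer: 100 mM Tris/HCl pH8, 100 mM KCl, 0.05% low protease BSA, 2.5% glycerol, 0.01% Tween-20. ClpP 10 microg/mL final; 20 min RT; delta FRET normalized to ADEP and DMSO controls.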
Starred values were filed as active, the others as inactive; ? = inconclusive. An excerpt (hit frequency here may not be typical).

SMILES | TRPML1 inh | ClpP mod
Cc1cc(NC(=O)CCNS(=O)(=O)c2ccc3c(c2)CCCC(=O)N3)ccc1Br | 8 | 1.0%
Cc1cc(NC(=O)c2ccco2)cc(-c2nc3cc(Cl)ccc3o2)c1O | 15 | 0.7%
COc1ccccc1C(=O)Nc1ccccc1OCc1cc(=O)n2c(C)csc2n1 | -10 | -5.4%
CC1=C(c2ccc(C(C)C)cc2)S(=O)(=O)NC1=NCc1ccccc1Br | 5 | -2.8%
COc1ccccc1-c1nc2c(c(SCC(=O)Nc3ccc(C)c(C)c3)n1)Cc1c(CO)cnc(C)c1O2 | -6 | 4.9%
CCCS(=O)(=O)N1CCC(N2CCN(Cc3ccc(F)cc3)C(=O)C2=O)CC1 | -11 | 1.5%
CCOC(=O)c1cc(S(=O)(=O)N2CCN(c3cc(C)ccc3C)CC2)[nH]n1 | -4 | -0.8%
Cc1ccc(F)c(S(=O)(=O)NC(=O)C2(C)CCN2C(=O)Cc2ccc(C(C)(C)C)cc2)c1 (stereo not drawn) | 12 | -0.5%
CCC1CCCCN1CCCNC(=O)c1cc2c(Cl)nc3ccc(C)cc3c2s1 (stereo not drawn) | 2 | -2.2%
COc1ccc(-c2cn3c(n2)sc2cc(C(=O)NC4CCCCCC4)ccc23)cc1 | 6 | -15%
CCOC(=O)c1c(C)oc2nc(C)nc(N3CCN(c4cccc(C)c4C)CC3)c12 | 2 | 1.0%
COc1ccc(-n2c3c(cc(-c4nc(-c5ccc(C)cc5)cs4)c2=O)C(=O)CC(C)(C)C3)cc1 | -8 | ?
COc1ccccc1CNC(=O)c1cccn1-c1nnc(N2CCCCC2)s1 | 7 | -4.1%
COc1ccc(CC(N)c2csc(Nc3cc(NCCCO)ncn3)n2)cc1 (stereo not drawn) | -7 | -2.3%
Cc1cc(OCCn2cc(C(=O)c3ccco3)c3ccccc32)ccc1Cl | 7 | ?
O=C(CSc1nnc(-c2cccs2)o1)Oc1ccccc1 | -13 | 74%
COc1ccc(-c2noc(CSc3nc4ccccc4[nH]3)n2)cc1 | -15 | 0.5%
Cc1c(C(=O)OC2CCCCC2)[nH]c2c1C(=O)CC(c1ccc(F)cc1)C2 (stereo not drawn) | -10 | -3.3%
CCCCc1nn2c(=O)cc(COC(=O)c3ccc(NC(=O)C(CC)CC)cc3)nc2s1 | 33 | 18%
O=C(NC(=O)c1ccccc1)Nc1ccc(-c2cc(C(F)(F)F)nn2-c2ccccc2)cc1 | 2 | -0.6%
COc1cc(Cl)c(C)cc1NC(=O)c1cc2c(Cl)nc3ccc(C)cc3c2s1 | -6 | -1.8%
Cc1cc(Nc2cccc(C(=O)O)c2)n2nc(C)nc2n1 | 4 | -0.4%
COC(=O)c1c(NC(=O)c2nc(SCc3ccccc3C)ncc2Cl)sc2c1CCCC2 | -3 | -0.3%
O=C(NCc1ccc(Cl)cc1)c1ccc(Cn2c(=O)c3cccn3c3cccnc32)cc1 | 26 | -7.2%
CCc1ccc(-n2c(=O)c3c4c(sc3n(Cc3ccccc3C#N)c2=O)CCCC4)cc1 | 3 | 0.1%
CN1C(=O)Cc2cc(S(=O)(=O)CCC(=O)Nc3ccccc3)ccc21 | -2 | 1.3%
Cc1ccc(C)c(Nc2nnc(-c3ccc(C)c(S(=O)(=O)NCC4CCCO4)c3)c3ccccc23)c1 (stereo not drawn) | 23 | -18%
Cc1cccc(-c2nc(C)c(CCNC(=O)c3cccs3)s2)c1 | 2 | 4.3%
Cc1ccccc1Cn1c(Oc2ccccc2F)nc2c1c(=O)n(C)c(=O)n2C | 8 | 0.3%
COc1ccc(OC)c(S(=O)(=O)NCCc2sc(C)nc2C)c1 | 6 | -2.4%
CCCC1=Nc2cc(C(=O)NCC(C)c3ccccc3)ccc2Sc2ccccc21 (stereo not drawn) | 5 | 0.2%
COc1ccc(C2CC(=O)N(CC(=O)Nc3cc(C)ccc3C)c3ccccc3S2)cc1 (stereo not drawn) | 10 | 0.3%
CC(=O)N1CCCC1c1nc2ccccc2n1Cc1ccccc1Cl (stereo not drawn) | 6 | -0.3%
CCCN(C(=O)c1noc2c1COc1ccc(C)cc1-2)c1ccc(Cl)c(Cl)c1 | -16 | -3.0%
O=C(Nc1ccccc1Br)N1CCN2CCCCC2C1 (stereo not drawn) | 5 | -4.0%
Cc1cc(C)c(NC(=O)Nc2ccc3snnc3c2)c(C)c1 | 6 | -1.0%
COCCNC(=O)C1CCCN(C(=O)Cc2ccc(F)cc2)CC1 (stereo not drawn) | -6 | -0.7%
CCOc1c(Cl)cc(Cl)cc1CNCCSc1nnnn1C | -6 | -2.5%
CC(C)Oc1ccc(CNC(=O)C2=Cc3ccccc3OC2)cc1 | -21 | -2.8%
CCOc1cc(S(=O)(=O)NCCc2c(C)[nH]c3ccc(C)cc23)ccc1F | -13 | -1.4%
O=C(c1cc2ccc3cccnc3c2[nH]1)N1CCCCC1 | -8 | -2.7%
O=C(Cn1c(=O)oc2cc(S(=O)(=O)N3CCCCC3)ccc21)NCc1ccc(F)cc1 | -13 | -2.5%
COc1ccc(-c2cc(C(=O)NCCc3ccccc3)c3cc(C(C)C)ccc3n2)cc1 | -3 | 4.1%
Cc1cc(C)cc(NC(=O)CN2C(=O)CSc3ccc(S(=O)(=O)N4CCCC4)cc32)c1 | 14 | -0.6%
CCN(Cc1ccccc1)C(=O)Cn1c(=O)cc(C)c2c(C)nn(-c3cccc(F)c3)c21 | 44 | ?
CC(=O)c1cc2c(cc1N/C(=N/S(=O)(=O)c1ccc(C)cc1)c1ccc(F)cc1)OCO2 | -7 | -0.9%
CCC(Sc1nc2ccncc2[nH]1)C(=O)Nc1cc(C)ccc1C (stereo not drawn) | -2 | -2.0%
Cc1cccc(S(=O)(=O)NC(=O)C2(C)CCN2C(=O)c2cccc(F)c2)c1 (stereo not drawn) | 23 | 1.0%
CCOC(=O)c1cccc(NC(=O)c2oc3c(c2C)-c2nn(CC)cc2CC3)c1 | -26 | -27%
COc1ccc(-c2cn3nc(SCC(=O)Nc4ccc(C)c(Cl)c4)ccc3n2)cc1 | 6 | 4.6%

Continued:
SMILES | TRPML1 inh | ClpP mod
Cc1ccc(Nc2nn3c(=O)c4cc5c(cc4nc3s2)OCO5)cc1Cl | -13 | -12%
Cc1ccc(Cn2c(C)c(CNCc3ccccc3F)c(C(=O)O)c2C)cc1 | 0 | 1.4%
CC(C)c1nnc(N2C(=O)c3oc4ccccc4c(=O)c3C2c2ccccc2F)s1 (stereo not drawn) | 47 | 0.0%
COc1ccc(S(=O)(=O)NCC(c2ccco2)N2CCN(c3ccccc3)CC2)cc1OC (stereo not drawn) | 10 | -6.1%
Cc1cc(C)cc(NC(=O)C(Cc2ccccc2)NS(=O)(=O)c2ccc3c(c2)CCC(=O)N3)c1 (stereo not drawn) | 3 | -0.8%
COC(=O)c1ccccc1NS(=O)(=O)c1cc2c(cc1C)N(C)CCO2 | 1 | -5.1%
CCOC(=O)c1c(S(=O)(=O)NCC(=O)N(C)c2ccc(C)cc2)c(C)n(C)c1C | -15 | -0.4%
CCOC(=O)c1cnc(NCc2ccc(Cl)cc2)c2ccccc12 | 7 | 4.1%
Cc1ccccc1C(=O)OCc1cc(=O)n2nc(C3CCCCC3)sc2n1 | -8 | -8.1%
O=C(NCCc1nc2ccccc2n1Cc1ccc(Cl)cc1Cl)c1ccco1 | 4 | 0.3%

Rewritten in CSV form: 3 of the compounds above.
Structure,TRPML1 inh,ClpP mod
Cc1ccc(Cn2c(C)c(CNCc3ccccc3F)c(C(=O)O)c2C)cc1,0,1.4%
CC(C)c1nnc(N2C(=O)c3oc4ccccc4c(=O)c3C2c2ccccc2F)s1 (stereo not drawn),47,0.0%
COc1ccc(S(=O)(=O)NCC(c2ccco2)N2CCN(c3ccccc3)CC2)cc1OC (stereo not drawn),10,-6.1%

The list goes on.
SMILES | TRPML1 inh | ClpP mod
O=C(NCCc1ccc(Cl)cc1)c1ccc(CS(=O)(=O)Cc2ccc(Cl)cc2)o1 | -5 | 0.1%
Clc1cccc(Cc2c(-c3ccccc3)nc3ccc(Br)cn23)c1 | 21 | 0.5%
CSc1ccc(CCNC(=O)CCCn2nc(C)c3sc4ccccc4c3c2=O)cc1 | 4 | -0.3%
CCc1ccc(NC(=O)CSc2nc(=O)n(Cc3ccco3)c3c2CCC3)cc1 | 8 | -1.2%
CN(C(=O)Cn1nnc(-c2ccc(S(C)(=O)=O)cc2)n1)c1ccccc1 | 22 | 1.1%
COC(=O)c1cc(NS(=O)(=O)c2cc(Br)cc3c2N(C(C)=O)CC3)cc(C(=O)OC)c1 | 3 | -11%
O=C(Cn1c(=O)ccc2cc(S(=O)(=O)N3CCCC3)ccc21)NCc1ccc(F)cc1 | -13 | -6.7%
COc1ccc(-n2c(-c3ccc(C)cc3)cc3c2CC(C)(C)CC3=O)c(OC)c1 | 14 | ?
COc1cc(Cl)c(C)cc1NS(=O)(=O)c1c(C)nc2sccn2c1=O | 5 | -2.8%
COc1cc(OC)c(NC(=O)CSc2cc(=O)n(C)c3ccc(Cl)cc23)cc1Cl | 16 | -1.7%
Fc1ccccc1OCc1nc(-c2ccc(-n3cccc3)cc2)no1 | -4 | ?
CCOC(=O)c1ccccc1NC(=O)N(Cc1ccc(C)cc1)Cc1cccn1-c1nnc(N2CCCC2=O)s1 | -9 | -17%
CCOC(=O)c1cnc2c(Cl)cc(Cl)cc2c1Nc1cc(C(=O)O)ccc1C | -7 | -5.6%
O=C(NCc1ccc(Cl)cc1)C(=O)Nc1cccc(Br)c1 | 13 | -1.6%
CCCOC(=O)c1cccc(NC(=O)CSc2nnc3cc(C)c4ccccc4n23)c1 | -12 | -6.0%
Cc1ccc(Cn2c3ccccc3c3cnn(CC(=O)Nc4cc(Cl)ccc4C)c(=O)c32)cc1 | -1 | -2.2%
CCOC(=O)c1c(C)[nH]c(C)c1S(=O)(=O)N1CCC(C(=O)N2CCN(c3ccccc3F)CC2)CC1 | -12 | 1.3%
CN1CCN(CCCNC(=O)c2cnn(-c3ccccc3)c2-n2cccc2)CC1 | -2 | -2.6%
Cc1ccc(S(=O)(=O)c2c(C)nn(-c3ccccc3)c2OC(=O)c2ccccc2F)cc1 | ? | -2.0%
CCOC(=O)c1[nH]c(C)c(CCC(=O)N2CCN(c3cc(C)ccc3C)CC2)c1C | 44 | -2.2%
CSc1cccc(NC(=O)N2CCN(c3cc(-c4noc(C)n4)ccc3C)CC2)c1 | 46 | -5.4%
COC(=O)c1cc2c(cc1NC(=O)c1cnn(-c3ccc(C)cc3)c1-n1cccc1)OCO2 | -2 | -1.1%
Cc1ncc(COC(=O)C(C)C)c2cc(C(=O)Nc3ccccc3C(F)(F)F)c(=O)oc12 | -4 | 2.5%
CCC(=O)Nc1ccccc1-c1nc2ccccc2n(C(CC)C(=O)Nc2cccc(Cl)c2)c1=O (stereo not drawn) | 9 | -9.5%
CCOC(=O)c1c(C)sc(-c2c(-c3ccc(OC)c(F)c3)[nH]c3[nH]c(=O)[nH]c(=O)c23)c1O | 7 | 1.9%
Cc1ccc(NC(=O)/C(C#N)=C\c2ccc(-c3ccc(Cl)cc3)o2)c(C)c1 | -12 | 0.1%
Cc1ccc(NC(=O)Cn2cc(C(=O)C3CCCCC3)c3ccccc32)cc1 | -10 | -1.8%
O=C(Nc1sc2c(c1C(=O)NCc1ccccc1)CCCC2)c1cc(=O)c2ccccc2o1 | 0 | -0.5%
Cc1cccc(N2C(=O)CS(=O)(=O)C23C(=O)N(C)c2ccccc23)c1 (stereo not drawn) | -3 | -0.9%
CCCN(CCC)CCCNC(=O)c1cc2c(=O)n(C)c3ccccc3c2s1 | -6 | 4.2%

A run of entries from further up, as a working copy:
SMILES | TRPML1 inh | ClpP mod
Cc1cc(NC(=O)CCNS(=O)(=O)c2ccc3c(c2)CCCC(=O)N3)ccc1Br | 8 | 1.0%
Cc1cc(NC(=O)c2ccco2)cc(-c2nc3cc(Cl)ccc3o2)c1O | 15 | 0.7%
COc1ccccc1C(=O)Nc1ccccc1OCc1cc(=O)n2c(C)csc2n1 | -10 | -5.4%
CC1=C(c2ccc(C(C)C)cc2)S(=O)(=O)NC1=NCc1ccccc1Br | 5 | -2.8%
COc1ccccc1-c1nc2c(c(SCC(=O)Nc3ccc(C)c(C)c3)n1)Cc1c(CO)cnc(C)c1O2 | -6 | 4.9%
CCCS(=O)(=O)N1CCC(N2CCN(Cc3ccc(F)cc3)C(=O)C2=O)CC1 | -11 | 1.5%

The results go on:
SMILES | TRPML1 inh | ClpP mod
CC(C)Nc1ccc(-c2nc(-c3ccccn3)no2)cc1[N+](=O)[O-] | -11 | -0.8%
COc1ccccc1CNC(=O)CSc1ncc(S(=O)(=O)c2ccc(C)c(Cl)c2)c(=O)[nH]1 | -6 | -1.4%
CCCCN1CCCc2cc(CN(CCCN3CCOCC3)C(=O)Nc3ccc(OCC)cc3)ccc21 | 5 | -4.4%
CCc1nn(CC(=O)Nc2cc(C)cc(C)c2)c(=O)c2cc3sccc3n12 | -12 | -9.7%
COc1ccc(CNC(=O)C2CCN(S(=O)(=O)c3ccc(C)cc3)CC2)cc1 | 4 | 0.1%
CCn1c(CC2C(=O)N(C)c3ccccc32)nc2ccccc2c1=O (stereo not drawn) | 43 | -0.3%
Cc1ccc(S(=O)(=O)N2[C@H](c3ccccc3)CC(=O)[C@@H]3CN(S(=O)(=O)c4ccccc4C)[C@H](c4ccccc4)C[C@@H]32)cc1 | 22 | -0.5%
CC(=O)N1CCc2cc(Br)cc(S(=O)(=O)CCC(=O)NCCc3ccc(Cl)cc3)c21 | 0 | -1.9%
COc1ccc(OCCn2nnc3sc4c(c3c2=O)CCCC4)cc1 | -6 | 0.9%
